SARS PLpro yeast: SARS-CoV PLP inhibition in yeast | S. cerevisiae expressing SARS-CoV PLpro, growth rescue; control for the full effect not named in the record | Potency, µM (top dose mostly 32.9 µM), for inactives: top-dose activity, positive = growth rescue | actives 0.19% (n = 330,000); active means well fitted rising curve with a large enough effect; inconclusive means small, poorly fitted or top-dose-only effect; inactive means no such curve, though single readings can be large or run the other way; also: 0% is about no effect; nearly all actives have a fitted effect of over 55% in size; growth read by luminescence after 48 h
Active calls of the source: *; u = inconclusive. Potency is read from the fitted curve at half-maximal effect.

| cpd | Molecule | SARS PLpro yeast |
| --- | --- | --- |
| 1 | Cn1c2ccsc2c2cnn(Cc3ccc(F)cc3)c(=O)c21 | -4% |
| 2 | COc1ccc(-n2c(C)nc3sc4c(c3c2=O)CCCC4)cc1 | -7% |
| 3 | Cc1ccc(CN=C2NC(=O)C(CC(=O)NCCc3ccccc3)S2)cc1 (stereo not drawn) | -3% |
| 4 | CCNC(=S)N/N=C(\C)c1ccc2ccccc2c1 | 1% |
| 5 | COC(=O)c1cccc(Cn2cc([N+](=O)[O-])cn2)c1 | 1% |
| 6 | CCc1cc2cc3c(cc2nc1SCC(=O)Nc1cc(OC)c(OC)cc1C(=O)O)OCO3 | -1% |
| 7 | O=C(O)c1ccc(S(=O)(=O)N[C@H](Cc2ccc(C(F)(F)F)cc2)C(=O)O)cc1 | 2.8µM* |
| 8 | O=C1NC(Cc2ccccc2)c2nc3cc(F)ccc3c(=O)n2-c2ccc(Cl)cc21 (stereo not drawn) | -3% |
| 9 | NC(=O)c1cccc(C[C@H](C(=O)O)N2C(=O)c3ccc(C(=O)O)cc3C2=O)c1 | 2% |
| 10 | Cn1c(N)c(C(=O)COC(=O)c2ccc(S(=O)(=O)N3CCCCC3)cc2)c(=O)n(C)c1=O | -4% |
| 11 | O=C1OCC2=C1C(c1ccc(F)cc1)CC(=O)N2c1ccc(F)cc1 (stereo not drawn) | 1% |
| 12 | CC(C)N(C(=S)NC1CCCCC1)c1ccccc1 | -1% |
| 13 | CCc1ccc(S(=O)(=O)/N=C2\C=CC(=O)c3ccccc32)cc1 | -5% |
| 14 | CCNC(=S)N/N=C/c1sccc1C | 1% |
| 15 | CCNC(=S)N/N=C/c1ccc(F)cc1 | u |
| 16 | COc1ccc2nc3n(c(=O)c2c1)-c1cc(Cl)ccc1C(=O)NC3Cc1ccccc1 (stereo not drawn) | 3% |
| 17 | C=C(NC(=O)C(=C)NC(=O)c1csc(C2=NC3c4csc(n4)C4NC(=O)c5csc(n5)C([C@@](C)(O)C(C)O)NC(=O)C5CSC(=N5)/C(=C\C)NC(=O)C(C(C)O)NC(=O)c5csc(n5)[C@]3(CC2)NC(=O)C(C)NC(=O)C(=C)NC(=O)C(C)NC(=O)C(C(C)CC)NC2C=Cc3c(C(C)O)cc(nc3C2O)C(=O)OC4C)n1)C(N)=O (stereo partly drawn) | 2% |
| 18 | COc1ccc(N(CC(=O)N/N=C(\C)c2cccs2)S(=O)(=O)c2ccccc2)cc1Cl | 0% |
| 19 | Cn1c2cc([N+](=O)[O-])sc2c2cnn(Cc3ccccc3F)c(=O)c21 | -6% |
| 20 | Oc1ccc(COC2CCN(Cc3ccccc3)C2)c2cccnc12 (stereo not drawn) | 2% |
| 21 | CC1=NNC(=O)C1C(c1ccccc1)C1C(=O)NN=C1C (stereo not drawn) | 0% |
| 22 | COC1=C(OC)C(=O)C(CCCCCCCCCCO)=C(C)C1=O | -17% |
| 23 | C=CCNc1ccc(N2C(=O)C3CCC(C)CC3C2=O)cc1[N+](=O)[O-] (stereo not drawn) | 1% |
| 24 | C/C(=N/NC(=O)C(=O)N/N=C(/C)c1ccccc1)c1ccccc1 | 0% |
| 25 | CN1CCN(c2c(F)cc3c(=O)c(C(=O)O)cn(CCF)c3c2F)CC1 | 3% |
| 26 | N#Cc1ccc(-c2nc3cc(C#N)c(C#N)cc3nc2-c2ccccc2)cc1C#N | -3% |
| 27 | O=C(O)c1cc(Cl)c(Cl)cc1C(=O)Nc1cccnc1 | 0% |
| 28 | CCCCNC(=O)C(C1CCCCC1)N(CCN(C)C)C(=O)CCCN1C(=O)NC(c2ccc(-c3ccccc3)cc2)C(C(=O)OCc2ccccc2)=C1C (stereo not drawn) | -21% |
| 29 | O=C1Nc2ccc(Cl)cc2[C@@](C#CC2CC2)(C(F)(F)F)O1 | -27% |
| 30 | CCNC(=O)CC1C(=O)N(c2ccc(OC)cc2)C(=S)N1CCc1ccncc1 (stereo not drawn) | 4% |
| 31 | COc1cccc(-c2c(C#N)c(N)nc3c2c(=O)nc2sccn23)c1 | 0% |
| 32 | Cn1ccc2cc(-c3ccc4ncnc(NCc5cccnc5)c4c3)ccc21 | -17% |
| 33 | Cc1ccc2nc3n(c(=O)c2c1)-c1ccc(Cl)cc1C(=O)NC3CC(C)C (stereo not drawn) | 7% |
| 34 | Cn1cc2c([N+](=O)[O-])cc([N+](=O)[O-])cc2n1 | 2% |
| 35 | COc1ccc(CCNC(=O)C2CCC(CNS(=O)(=O)c3ccccc3)CC2)cc1OC (stereo not drawn) | 0% |
| 36 | CC(C)CC1NC(=O)c2cc(Cl)ccc2-n2c1nc1ccc(F)cc1c2=O (stereo not drawn) | 0% |
| 37 | O=C(O)c1ccc2c(c1)C(=O)N([C@]1(C(=O)O)C[C@H]1c1ccccc1)C2=O | 0% |
| 38 | Cc1ccc2nc(-c3ccc(NC(=O)CN(C)S(=O)(=O)c4ccccc4)cc3)sc2c1 | 0% |
| 39 | CC1(C)NC(=O)N(CC(=O)Nc2cc(S(=O)(=O)N3CCOCC3)ccc2N2CCOCC2)C1=O | -1% |
| 40 | C#CCOCCOCCOCCNc1nc(N2CCN(C(=O)CCCCCCCCCCNC(=O)[C@H](CCCN=C(N)N)n3cc(C[C@@H](C)CC)nn3)CC2)nc(N2CCN(C(=O)CCCCCCCCCCNC(=O)[C@@H]([C@H](C)CC)n3cc(CCCCCN)nn3)CC2)n1 | 1% |
| 41 | C/C(=N\Nc1ncc(Cl)cc1Cl)c1cccs1 | -1% |
| 42 | COc1ccc(N2C(=O)CCC2(C(N)=O)c2ccccc2)cc1 (stereo not drawn) | 1% |
| 43 | O=C(O)c1ccc2c(c1)C(=O)N([C@H](Cc1ccc(C(F)(F)F)cc1)C(=O)O)C2=O | -7% |
| 44 | CC(C)NC(=O)c1ccc(-n2c(=S)[nH]c3ccccc3c2=O)cc1 | 0% |
| 45 | O=C(O)c1ccc(/C=N/NC(=O)C2CC2(c2ccccc2)c2ccccc2)cc1 (stereo not drawn) | 0% |
| 46 | CC(C)CC1NC(=O)c2ccccc2-n2c1nc1ccccc1c2=O (stereo not drawn) | 1% |
| 47 | COc1ccc(NC(=S)N(CCN2CCOCC2)Cc2cc3cc4c(cc3[nH]c2=O)OCO4)cc1 | -6% |
| 48 | CCCN(CC1CC1)C(=O)CSc1nnc(-c2ccco2)n1N | -1% |
| 49 | C#CCOCCOCCOCCNc1nc(N2CCN(C(=O)CCCCCCCCCCNC(=O)[C@H]([C@@H](C)CC)n3cc(CCCCN=C(N)N)nn3)CC2)nc(N2CCN(C(=O)CCCCCCCCCCNC(=O)[C@H](CCCN=C(N)N)n3cc(C[C@@H](C)CC)nn3)CC2)n1 | -13% |
| 50 | CCOc1ccc(OCC(=O)N(CCC2=CCCCC2)c2c(N)n(Cc3ccccc3)c(=O)[nH]c2=O)cc1 | 4% |
| 51 | O=[N+]([O-])c1ccc(O)c(C=Nc2ccc3oc(Cc4ccc(Cl)cc4)nc3c2)c1 | 1% |
| 52 | COc1ccc(Cl)cc1C(=O)Nc1nc2ccc(S(C)(=O)=O)cc2s1 | 1% |
| 53 | O=C(COC(=O)c1ccc[n+]([O-])c1)Nc1c(Br)cc([N+](=O)[O-])cc1Br | -3% |
| 54 | CC(=O)NC(c1cc(F)c2cccnc2c1O)C(C)C (stereo not drawn) | 4% |
| 55 | COC(=O)CCC(=O)c1ccc(OC)c(Cl)c1 | 0% |
| 56 | CC(=O)OC[C@]12CC[C@H]3[C@@](C)(CC[C@H]4C(C)(C)CCC[C@]34C)[C@@H]1C[C@H](C1=CC(=O)O[C@@H]1OC(C)=O)O2 | -7% |
| 57 | COc1ccc(S(=O)(=O)CCC(=O)Nc2cccc(OC)c2)cc1 | 2% |
| 58 | CC1(C)Cc2nc3sc(C(=O)O)c(N)c3cc2CS1 | 0% |
| 59 | COc1cc(C(=O)NCc2ccc(-n3cccc3)cc2)cc(OC)c1OC | 2% |
| 60 | N#Cc1ccc(C[C@H](C(=O)O)N2C(=O)c3ccc(C(=O)O)cc3C2=O)cc1 | 3% |

An excerpt from above in order of formula weight, falling.
| cpd | Molecule | SARS PLpro yeast |
| --- | --- | --- |
| 28 | CCCCNC(=O)C(C1CCCCC1)N(CCN(C)C)C(=O)CCCN1C(=O)NC(c2ccc(-c3ccccc3)cc2)C(C(=O)OCc2ccccc2)=C1C (stereo not drawn) | -21% |
| 47 | COc1ccc(NC(=S)N(CCN2CCOCC2)Cc2cc3cc4c(cc3[nH]c2=O)OCO4)cc1 | -6% |
| 39 | CC1(C)NC(=O)N(CC(=O)Nc2cc(S(=O)(=O)N3CCOCC3)ccc2N2CCOCC2)C1=O | -1% |
| 10 | Cn1c(N)c(C(=O)COC(=O)c2ccc(S(=O)(=O)N3CCCCC3)cc2)c(=O)n(C)c1=O | -4% |
| 30 | CCNC(=O)CC1C(=O)N(c2ccc(OC)cc2)C(=S)N1CCc1ccncc1 (stereo not drawn) | 4% |
| 36 | CC(C)CC1NC(=O)c2cc(Cl)ccc2-n2c1nc1ccc(F)cc1c2=O (stereo not drawn) | 0% |
| 26 | N#Cc1ccc(-c2nc3cc(C#N)c(C#N)cc3nc2-c2ccccc2)cc1C#N | -3% |
| 59 | COc1cc(C(=O)NCc2ccc(-n3cccc3)cc2)cc(OC)c1OC | 2% |
| 60 | N#Cc1ccc(C[C@H](C(=O)O)N2C(=O)c3ccc(C(=O)O)cc3C2=O)cc1 | 3% |
| 31 | COc1cccc(-c2c(C#N)c(N)nc3c2c(=O)nc2sccn23)c1 | 0% |
| 11 | O=C1OCC2=C1C(c1ccc(F)cc1)CC(=O)N2c1ccc(F)cc1 (stereo not drawn) | 1% |
| 22 | COC1=C(OC)C(=O)C(CCCCCCCCCCO)=C(C)C1=O | -17% |
| 2 | COc1ccc(-n2c(C)nc3sc4c(c3c2=O)CCCC4)cc1 | -7% |
| 12 | CC(C)N(C(=S)NC1CCCCC1)c1ccccc1 | -1% |
| 5 | COC(=O)c1cccc(Cn2cc([N+](=O)[O-])cn2)c1 | 1% |

Remaining list, next part:
| cpd | Molecule | SARS PLpro yeast |
| --- | --- | --- |
| 61 | Cc1ccc2c(=O)n3c(nc2c1)C(Cc1ccccc1)NC(=O)c1ccc(Cl)cc1-3 (stereo not drawn) | -17% |
| 62 | CCOc1cccc2cc(-c3csc(NC(=O)CCC(=O)NCCCN4CCC(C)CC4)n3)c(=O)oc12 | 0% |
| 63 | CC(CCc1ccccc1)NC(=O)/C=C/c1ccc(F)cc1 (stereo not drawn) | -7% |
| 64 | COc1ccc(CNC(=S)Nc2ccccc2-c2ccccc2)cc1 | -11% |
| 65 | CC(C)[C@]1(c2ccc(Cl)cc2)ON(c2ccccc2C(F)(F)F)C1=O | 4% |
| 66 | O=c1/c(=C/c2ccc(O)cc2)sc2nc3cc(Br)cnc3n12 | -1% |
| 67 | O=C(Cn1c(CO)nc2ccccc21)NC1CCCCCC1 | -1% |
| 68 | Cn1c(SCn2nnc3ccccc3c2=O)nc2ccccc2c1=O | -1% |
| 69 | Cc1ccc2c(c1)-n1c(nc3cc(Cl)ccc3c1=O)C(Cc1ccccc1)NC2=O (stereo not drawn) | 4% |
| 70 | CC1CNc2c(cccc2S(=O)(=O)N[C@@H](CCCN=C(N)N)C(=O)N2CC[C@@H](C)C[C@@H]2C(=O)O)C1 (stereo partly drawn) | -1% |
| 71 | CC(C)CC1NC(=O)c2ccccc2-n2c1nc1ccc(F)cc1c2=O (stereo not drawn) | 7% |
| 72 | O=C(Nc1cccc(N2C(=O)C=CC2=O)c1)c1cccs1 | -44% |
| 73 | CC(=O)NCc1cc(Cl)c2cccnc2c1O | -2% |
| 74 | O=S(=O)(NC1CCC(CNS(=O)(=O)c2c(F)cccc2F)CC1)c1ccc2c(c1)OCCO2 (stereo not drawn) | 6% |
| 75 | O=C1C(=O)N(CCc2c[nH]c3ccccc23)C(c2cccnc2)/C1=C(/O)c1ccccc1 (stereo not drawn) | 0% |
| 76 | Cn1ccc2cc(-c3ccc4ncnc(NCc5cccc(F)c5)c4c3)ccc21 | -1% |
| 77 | Cc1cccc(-c2ccc3ncnc(NCc4cccc(F)c4)c3c2)c1 | -14% |
| 78 | C#CCOCCOCCOCCNc1nc(N2CCN(C(=O)CCCCCCCCCCNC(=O)[C@H]([C@@H](C)CC)n3cc(CCCCN=C(N)N)nn3)CC2)nc(N2CCN(C(=O)CCCCCCCCCCNC(=O)[C@H](CCCCN)n3cc(C[C@@H](C)CC)nn3)CC2)n1 | 0% |
| 79 | CN(C)CCCN=Cc1c(O)n(Cc2ccc3c(c2)OCO3)c(=O)c2ccccc12 | 1% |
| 80 | Oc1cc(Nc2ccc(N3CCCCC3)cc2)cc2cccnc12 | 2% |
| 81 | NC(=O)c1ccc(N=Nc2c(-c3ccccc3)[nH]n(-c3ccccc3)c2=O)cc1 | -1% |
| 82 | CCN1C(=O)/C(=C\c2ccc([N+](=O)[O-])s2)C(=O)NC1=S | 2% |
| 83 | COCCNC(=O)CNC(c1ccccc1)c1ccccc1 | -3% |
| 84 | O=C1OC2(c3ccccc31)c1cc(I)c(O)c(I)c1Oc1c2cc(I)c(O)c1I | 1% |
| 85 | O=C1NC(Cc2ccccc2)c2nc3ccc(Cl)cc3c(=O)n2-c2cc(Cl)ccc21 (stereo not drawn) | 2% |
| 86 | Cc1cc(NC(=O)CSc2nc3cc(Cl)ccc3c(=O)n2CC(C)C)no1 | 1% |
| 87 | N#Cc1cccc(NC(=O)COC(=O)c2ccc3c(=O)n4c(nc3c2)CCC4)c1 | 0% |
| 88 | N#Cc1ccc(C[C@@H](NS(=O)(=O)c2ccc(C(=O)O)cc2)C(=O)O)cc1 | -6% |
| 89 | O=C1NC(Cc2ccccc2)c2nc3cc(Cl)ccc3c(=O)n2-c2ccccc21 (stereo not drawn) | -1% |
| 90 | c1coc(-c2ccc3ncnc(NCc4cccs4)c3c2)c1 | 2% |
| 91 | COc1ccccc1C(=O)NCC(=O)Nc1cccnc1 | 2% |
| 92 | O=C(c1cnn(C(=O)c2ccc(O)cc2)c1)c1ccccc1O | 0% |
| 93 | CC(c1ccccc1)C(Cc1nc2ccccc2[nH]1)c1nc2ccccc2[nH]1 (stereo not drawn) | 0% |
| 94 | CCOC(=O)Cn1nc(C)c(NC(=O)COc2ccc(F)cc2F)c1C | 3% |
| 95 | CCNc1nc(NCC)nc(Oc2ccc(OCc3ccccc3)nn2)n1 | 1% |
| 96 | COc1ccc(CN2C(=O)NC(=O)/C(=C/c3ccc([N+](=O)[O-])o3)C2=O)cc1 | -4% |

From PubChem BioAssay

Some of the compounds tested, so the mix of outcomes need not match the whole.
